Arbovirus anti = arbovirus infection inhibition; arbovirus infection cell-based antiviral screen; inhibition, % at 10 µM; hit rate 0.37% among 200,000; AID 1251;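 active = inhibition from about 30%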;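 note: bluetongue infection of BSR cells; cell survival read as ATP light after 72 h; 0% = infected wells without compound and 100% = uninfected wells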
Mtb bLac sens = beta-lactam sensitization of Mtb H37Rv. AID 434955. M. tuberculosis H37Rv growth with meropenem, percent inhibition; hits of this screen are not shown here. hit rate 0.27% among 330,000. inhibition, % at 25 µM;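 active = about 74% or more and at least 40 points above the plate without the antibiotic, then above 30% in a dose series; inconclusive = first-round hits that could not be retested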;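 note: growth measured after seven days incubation then overnight dye step; 0% = bacteria only wells and 100% = bacteria with antibiotic; twin plates without the antibiotic show which effects depend on it; some results filed as inactive read as strong as hits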
RecA splice inh = Mtb RecA intein splicing inhibition; P9WHJ3; hit rate 0.75% among 290,000; inhibition, %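 (about 9 µM by stock and volumes)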; cell-free RecA intein splicing, fluorescence; in the data active = inhibition above about 30%; inconclusive = no clear call, values can overlap the other calls;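 note: 0% = vehicle wells and 100% = reference inhibitor control wells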
Target sequence (P9WHJ3 whole entry, looked up, canonical isoform): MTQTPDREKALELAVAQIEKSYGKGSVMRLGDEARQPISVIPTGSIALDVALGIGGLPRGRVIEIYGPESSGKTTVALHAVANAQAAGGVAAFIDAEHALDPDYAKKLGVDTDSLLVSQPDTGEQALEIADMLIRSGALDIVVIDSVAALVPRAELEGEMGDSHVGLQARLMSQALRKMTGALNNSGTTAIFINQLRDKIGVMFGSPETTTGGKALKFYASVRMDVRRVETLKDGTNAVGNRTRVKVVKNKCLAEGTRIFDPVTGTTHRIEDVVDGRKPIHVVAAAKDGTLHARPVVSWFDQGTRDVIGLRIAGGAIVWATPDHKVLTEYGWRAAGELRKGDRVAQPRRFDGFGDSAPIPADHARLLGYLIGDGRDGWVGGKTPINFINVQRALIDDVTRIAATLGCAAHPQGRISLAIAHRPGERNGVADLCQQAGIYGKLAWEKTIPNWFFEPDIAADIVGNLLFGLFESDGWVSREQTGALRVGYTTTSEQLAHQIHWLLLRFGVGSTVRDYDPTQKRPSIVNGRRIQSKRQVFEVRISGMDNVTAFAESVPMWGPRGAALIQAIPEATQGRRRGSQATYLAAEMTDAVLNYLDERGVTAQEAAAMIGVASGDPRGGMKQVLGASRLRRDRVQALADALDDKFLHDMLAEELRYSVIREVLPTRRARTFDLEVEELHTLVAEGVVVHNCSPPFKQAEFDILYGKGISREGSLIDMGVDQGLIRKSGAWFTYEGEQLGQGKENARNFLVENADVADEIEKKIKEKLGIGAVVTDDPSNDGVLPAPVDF
YopH inh = blocks Yersinia enterocolitica YopH tyrosine phosphatase | fluorescence Ex485/Em525 | inhibition, %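 (about 10 µM by stock and volumes)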 | hit rate 0.16% among 140,000 | AID 898;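 active = inhibition of 50% or more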;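 note: controls were vehicle for no effect and minimum signal wells for full effect; inactives centre near -20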
Mtb H37Rv = M. tuberculosis H37Rv growth inhibitors, H37Rv strain (AID 1626); hit rate 0.95% among 220,000; M. tuberculosis H37Rv growth inhibition; higher % means a stronger effect; inhibition, % at 10 µM, or IC50 in µM where a hit was titrated;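 active = confirmed in a dose series; inconclusive = inhibition above 80% but not taken into the dose series; inactive = below 80% or under 30% at every dose of the series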;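 note: bacteria incubated seven days before Alamar blue readout; 0% = bacteria only wells and 100% = bacteria with antibiotic wells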
Arbovirus anti repeat = further read-out of Arbovirus anti, marked with its call; inhibition, %; measured here: 10K subset replicate screen; many hits read low in the repeat;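 first of two repeat runs on a subset; 0% = infected and 100% = uninfected wells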
Active calls of the source: *; ? = inconclusive; / = not tested or not shown. These rows are one share of the data; rates above refer to the full screens.

SMILES | Arbovirus anti | Mtb bLac sens | RecA splice inh | YopH inh | Mtb H37Rv | others
CCn1nnc(-c2ccccc2NC(=O)c2ccc(-n3cnnn3)cc2)n1 | -2 | 8 | -1.3 | -3 | -5%
OC(C#CCN1CCCC1)(c1ccccc1)c1cccc(F)c1 (stereo not drawn) | 9 | -2 | 5.5 | -1 | 3%
CNC(=O)C(=O)NCC1OCCN1S(=O)(=O)c1ccc(C)cc1 (stereo not drawn) | / | 0 | -1.6 | / | /
CCC(=O)Nc1cc(-c2nn3c(C)nnc3s2)ccc1C | -4 | -6 | -3.4 | -35 | 7%
CCc1ccccc1NC(=S)N(Cc1ccc(C(=O)O)cc1)Cc1ccc(OC)c(OC)c1 | 7 | -1 | -1.5 | / | 0%
CC1(C)CC(=O)C(C=NCC2CCN(C(=O)Nc3ccc(Cl)c(Cl)c3)CC2)=C(O)C1 | -1 | -3 | 4.7 | -1 | 4%
Cc1ccc(NC(=O)NC2=NN(c3ccccc3)C(=O)/C2=C2/CCCN2C)cc1 | -4 | 4 | -1.0 | / | 2%
O=C(Cn1c(=O)oc2cc(S(=O)(=O)N3CCCCC3)ccc21)N1CCCCC1 | / | -6 | -1.5 | / | /
COc1ccc(-c2c(-c3cccc(C)c3)oc3ccc(-c4ccc5c(c4)OCO5)cc23)cn1 | / | -1 | 2.8 | / | -8%
CCn1c(CC(=O)Nc2ccc(C)cc2)nnc1SCC(=O)N1CCOCC1 | / | -4 | -6.9 | / | /
CC1=C(C(N)=O)C(c2cccs2)NC(=S)N1 (stereo not drawn) | -3 | -5 | 0.7 | / | -13%
CCCOC(=O)C1=C(C)NC2=C(C(=O)CCC2)C1c1ccc(N(C)C)cc1 (stereo not drawn) | 10 | 4 | -4.8 | -15 | -1%
CCC(C)Sc1nnc(CSc2nc(C)cc(C)n2)n1C (stereo not drawn) | 0 | -1 | -1.1 | / | 3%
NC(=O)CSCc1cccc(Br)c1 | -4 | 3 | -4.5 | -33 | 1%
Cc1cc(NC(=O)CCC(=O)N(CC(=O)NC2CCCC2)Cc2ccc3c(c2)OCO3)no1 | 1 | -2 | 1.9 | / | -5%
CCOCCCNC(=O)C1(O)c2cc(Br)ccc2NC(=O)N1c1ccc(C)c(C)c1 (stereo not drawn) | / | -5 | 0.1 | / | /
Cc1nc2ccc(NC(=O)N(C(C)C)C(C)C)cc2s1 | 2 | 99 | -2.1 | -10 | 20µM*
Cc1cccc(C(=O)N2CCN(S(=O)(=O)c3ccc4c(c3)OCCCO4)CC2)c1[N+](=O)[O-] | / | -18 | 0.3 | / | /
CNC(=S)Nc1ccc(N2CCN(c3ccc(C(F)(F)F)cn3)CC2)nc1 | / | 95 | 1.7 | / | 75%
COc1ccc(CN(C)C(=O)c2ccc3ccccc3n2)cc1F | / | -1 | -2.7 | / | /
CCOc1ccc(N2C(=O)CC(Sc3nc(C)cc(C)n3)C2=O)cc1 (stereo not drawn) | 2 | 0 | 3.0 | -6 | -8% | Arbovirus anti repeat=3
COc1ccc(CC(=O)N2CCN(C(=O)Cc3ccc(OC)cc3)CC2)cc1 | 1 | -4 | 0.2 | -25 | /
Cc1nn(-c2ccccc2)c(C)c1C(=O)NCCc1ccccc1 | / | 5 | -2.4 | / | /
CCCOc1ccc(CNC(=O)CCC(=O)n2ncc3cc(C)ccc32)cc1 | / | 8 | -1.1 | / | /
O=C(N/N=C/c1ccc(OCC(=O)N2CCOCC2)cc1)c1ccccc1Cl | -3 | -3 | -1.7 | / | -14%
CCOc1ccc(NC(=O)CSc2ccccc2N)cc1 | -21 | 81 | -1.1 | / | >100µM*
CCCCCCCSc1nnc(-c2ccccc2N)c(=O)[nH]1 | 4 | -3 | / | / | -3%
NC(=O)c1snnc1-c1ccccc1 | / | -5 | 1.6 | / | -2%
COc1ccc(N2CCN(CCCNC(=O)c3ccc(CS(=O)(=O)c4ccc(Cl)cc4)o3)CC2)cc1 | / | -7 | 1.7 | / | /
CCOC(=O)c1c(-c2ccccc2)csc1NC(=O)c1cc(S(=O)(=O)N2CCOCC2)ccc1C | -3 | 2 | 4.6 | -42 | -12%
Cc1cccc(OCC(=O)NCC(=O)N/N=C/c2ccc(N(C)C)cc2)c1 | / | -12 | -1.2 | / | /
CCOC(=O)Cc1c[nH]c2ccccc12 | 9 | 1 | -0.4 | -15 | -5%
CCCS(=O)(=O)N1CCCC(C(=O)NCCCOCC)C1 (stereo not drawn) | 0 | 0 | -0.2 | 12 | -4%
CCOC(=O)CCc1c(C)nc2cc(C3CCCN(C(=O)OC(C)(C)C)C3)[nH]n2c1=O (stereo not drawn) | -8 | -15 | / | -25 | /
COc1cscc1C(N)=O | / | -1 | -0.6 | / | -14%
Cc1ccc(-n2c(=O)c3c(n4cnnc24)-c2ccccc2CC32CCCCC2)cc1 | 2 | 5 | -0.5 | -16 | 6%
NC(=O)C1CN(S(=O)(=O)c2ccc(Cl)cc2F)c2ccccc2O1 (stereo not drawn) | / | 8 | -1.3 | / | /
CCC(C)NS(=O)(=O)c1ccc(S(=O)(=O)N(CCc2ccc(OC)c(OC)c2)Cc2cccs2)cc1 (stereo not drawn) | -1 | 0 | 0.0 | 2 | 14%
Cc1cccnc1NC1(C(F)(F)F)N=C(c2ccccc2)NC1=O (stereo not drawn) | 7 | -4 | -1.6 | -19 | 3%
O=C(O)c1ccc(CSCc2c(F)cccc2Cl)o1 | 4 | -4 | -1.2 | -19 | -13%
COc1ccc(-c2cn3cc(Cl)ccc3n2)cc1OC | 0 | 18 | 3.2 | -9 | 30%
CSc1ncccc1C(=O)OCc1ccccc1 | 0 | 0 | 4.0 | -18 | 2%
CCc1nc2ccc(C(=O)Nc3ccc4c(c3)OCO4)cc2nc1CC | -28 | 12 | 0.8 | / | 3%
O=C1Cc2ccccc2C(c2ccc(Cl)cc2)N1 (stereo not drawn) | / | -4 | 5.8 | / | 7%
CCN(C(=O)c1sc(N)c(C#N)c1C)C1CCCCC1 | 0 | 9 | 3.2 | -6 | -5% | Arbovirus anti repeat=-4
CN(C)Cc1c(O)ccc2c1O/C(=C\C=C\c1ccccc1)C2=O | / | 32 | -8.4 | / | -2%
CCCN1CCC(=O)N([C@H](CO)CC(C)C)CC1 | / | -5 | -0.9 | / | /
CCN(CC)S(=O)(=O)c1cc(NC(=O)CNc2cccc(S(=O)(=O)N3CCCC3)c2)ccc1C | / | -3 | 4.1 | / | /
COc1c([N+](=O)[O-])c(=O)oc2ccccc12 | 1 | 11 | -0.1 | -29 | -2%
Cc1ccc(N2C(=O)N(CC(=O)N3CCOCC3)C(=O)C2C)cc1 (stereo not drawn) | 0 | 13 | 0.2 | / | -1%
S=c1[nH]nc(-c2cc(-c3ccccc3)n[nH]2)n1/N=C/c1ccccc1 | / | 8 | -8.2 | / | 1%
COCCn1nnnc1C(c1cc2ccc(OC)cc2[nH]c1=O)N1CCc2ccccc2C1 (stereo not drawn) | 0 | 1 | 3.3 | -18 | -6%
Cc1nnnn1/C(=C\c1ccccc1)C(=O)OCC(=O)N(C)C1CCS(=O)(=O)C1 (stereo not drawn) | 6 | -5 | 0.6 | / | -27%
O=C(O)CCC(NC(=O)c1cncc(O)c1)C(=O)O (stereo not drawn) | 5 | 5 | 0.2 | -12 | -6%
O=C(/C=C/c1ccco1)N(Cc1ccc(F)cc1)C1CCS(=O)(=O)C1 (stereo not drawn) | / | -7 | / | / | -3%
O=C(NCCC(=O)N1CCCCC1)c1ccc(Br)cc1 | / | 1 | -0.8 | / | /
O=C(COc1cc(Cl)ccc1Cl)Nc1nnc(C2CC2)s1 | / | ? | 1.0 | / | /
CCN(CC)C(=O)Cn1cnc2sc(C(=O)N3CCN(c4ccc(OC)cc4)CC3)c(C)c2c1=O | 6 | -3 | -0.7 | -11 | 2%
C[C@H](NC(=O)c1nc[nH]c1C(=O)NCc1ccccc1)C(=O)OC(C)(C)C | 1 | -8 | -0.6 | / | -5%
Cc1cccc(/N=C/C2=C(O)CC(C)(C)CC2=O)n1 | / | -13 | 2.9 | / | 7%

Five records picked at random from those above, as already listed:
SMILES | Arbovirus anti | Mtb bLac sens | RecA splice inh | YopH inh | Mtb H37Rv | others
Cc1ccc(N2C(=O)N(CC(=O)N3CCOCC3)C(=O)C2C)cc1 (stereo not drawn) | 0 | 13 | 0.2 | / | -1%
COCCn1nnnc1C(c1cc2ccc(OC)cc2[nH]c1=O)N1CCc2ccccc2C1 (stereo not drawn) | 0 | 1 | 3.3 | -18 | -6%
Cc1cccc(/N=C/C2=C(O)CC(C)(C)CC2=O)n1 | / | -13 | 2.9 | / | 7%
O=C(/C=C/c1ccco1)N(Cc1ccc(F)cc1)C1CCS(=O)(=O)C1 (stereo not drawn) | / | -7 | / | / | -3%
CCN(CC)C(=O)Cn1cnc2sc(C(=O)N3CCN(c4ccc(OC)cc4)CC3)c(C)c2c1=O | 6 | -3 | -0.7 | -11 | 2%

Additional results follow:
SMILES | Arbovirus anti | Mtb bLac sens | RecA splice inh | YopH inh | Mtb H37Rv | others
COc1cc2c(cc1OC)C1(CCCC1)CNC2c1cccc([N+](=O)[O-])c1 (stereo not drawn) | -7 | -2 | -1.7 | / | ?
COC(=O)C(NC(=O)c1ccc(F)cc1)(Nc1nc(C)cs1)C(F)(F)F (stereo not drawn) | -6 | -13 | -1.2 | -2 | -4%
COc1ccc([N+](=O)[O-])cc1N(CC(O)CN1C(=O)NC(C)(C)C1=O)S(=O)(=O)c1ccccc1 (stereo not drawn) | / | 0 | 3.4 | / | /
Cn1cc(C(=O)N2CCc3ccccc3C2)c(=O)c2cc(S(=O)(=O)N3CCCCC3)ccc21 | 3 | -12 | -2.7 | -6 | -15%
CCOc1ccc(-c2nnn(CC(=O)Nc3cc(OC)ccc3OC)n2)cc1OCC | -12 | 15 | 0.6 | -3 | -2%
COc1cc(-c2c(C#N)c(N)nc3c2CCCC3)cc(OC)c1OC | -4 | -15 | -1.2 | 7 | -4%
CCC(=O)n1nc(-c2ccc(OC)cc2)nc1N | 0 | -9 | -0.1 | -63 | 10%
Cc1cc(=O)n2c(n1)NC(Nc1cccc(C)c1C)=NC2c1ccc(F)cc1 (stereo not drawn) | / | 1 | 0.1 | / | -2%
Cc1ccc2nc(SCc3cccc([N+](=O)[O-])c3)nc(C)c2c1 | 6 | -8 | 0.6 | -45 | -7%
Cc1ccc(OCCn2cc(C#N)c3ccccc32)cc1 | -5 | 27 | / | -6 | 10%
O=C(Nc1ccnc(-c2cccnc2)n1)c1ccc(F)cc1 | -12 | 3 | 5.7 | / | 3%
CC1(C)Cc2nc3[nH]c(=S)[nH]c(=O)c3cc2CO1 | / | -9 | -1.4 | / | -10%
CN(C)CCCNS(=O)(=O)c1ccc(N2CCC(c3ccc(Cl)cc3)=N2)cc1 | -50 | -10 | -396 | -14 | 5%
COc1cc(CNC(=O)c2cc3ccccc3oc2=O)cc(OC)c1OC | / | -5 | -0.1 | / | /
CC(C)NC(=O)CN(C(=O)CCC(=O)Nc1nccs1)c1ccc(C(C)C)cc1 | / | 0 | -3.6 | / | /

Overlap with the part before: 2 compounds, followed by the next part.
SMILES | Arbovirus anti | Mtb bLac sens | RecA splice inh | YopH inh | Mtb H37Rv | others
COc1cc(CNC(=O)c2cc3ccccc3oc2=O)cc(OC)c1OC | / | -5 | -0.1 | / | /
CC(C)NC(=O)CN(C(=O)CCC(=O)Nc1nccs1)c1ccc(C(C)C)cc1 | / | 0 | -3.6 | / | /
CC1=C(C(N)=O)C(c2ccccn2)n2nc(SCc3ccccc3Cl)nc2N1 (stereo not drawn) | -2 | 2 | -0.6 | 1 | 0% | Arbovirus anti repeat=5
O=C(O)c1ccccc1-c1ccccc1C(=O)NNc1ccc([N+](=O)[O-])cc1 | / | 80 | 2.8 | / | 53%
COc1ccc(F)cc1S(=O)(=O)Nc1cccc(C(=O)O)c1 | -1 | -3 | 0.4 | -10 | -4%
C=CCn1c(Sc2ccccc2)nc2c1c(=O)[nH]c(=O)n2C | 15 | 39 | 1.4 | 36 | 16%
O=S(=O)(NCc1ccc2c(c1)OCO2)c1ccc(F)c(F)c1 | / | 1 | 1.6 | / | /
CCOc1ccc(Cl)cc1/C=N/NC(=O)c1ccccc1 | -7 | 11 | -0.4 | -16 | 0%
COc1cc(C2c3c(oc4ccccc4c3=O)C(=O)N2c2nccs2)ccc1O (stereo not drawn) | / | -2 | 0.2 | / | 0%
CC1=CC(C)(C)[N+](C)=CN1c1ccccc1 | 7 | -3 | 2.5 | -29 | -4%
O=C(Nc1ccc(-c2nc3cc(NC(=O)c4cccs4)ccc3o2)cc1)c1cccs1 | -10 | -2 | -9.3 | -28 | -6%
CCC(C)[C@H]1COCCS(=O)(=O)N1Cc1ccc(C)cc1 (stereo partly drawn) | / | -3 | 2.3 | / | /
N#CCOC(=O)[C@H](Cc1ccccc1)N1C(=O)c2ccccc2C1=O | / | 0 | 2.3 | / | /
CNC(=O)c1cc(C(=O)c2ccc(Cl)cc2)c[nH]1 | / | 4 | 1.9 | / | /

Screening data deposited in PubChem by several laboratories.
